Cruzain noTriton = inhibitors of Trypanosoma cruzi cruzain without detergent; Potency, µM, without a hit: max response, negative = inhibition, most hits filed as inhibitors; 200,000 tested, 2.3% active; purified cruzain, Z-FR-AMC fluorescence, no detergent; AID 1476; P25779;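 note: plate controls were enzyme without inhibitor for no effect and buffer without enzyme for full effect; nearly all actives have a fitted effect of over 40% in size; top concentration of the series not given in the record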
Target sequence (P25779 123-467 limits assumed): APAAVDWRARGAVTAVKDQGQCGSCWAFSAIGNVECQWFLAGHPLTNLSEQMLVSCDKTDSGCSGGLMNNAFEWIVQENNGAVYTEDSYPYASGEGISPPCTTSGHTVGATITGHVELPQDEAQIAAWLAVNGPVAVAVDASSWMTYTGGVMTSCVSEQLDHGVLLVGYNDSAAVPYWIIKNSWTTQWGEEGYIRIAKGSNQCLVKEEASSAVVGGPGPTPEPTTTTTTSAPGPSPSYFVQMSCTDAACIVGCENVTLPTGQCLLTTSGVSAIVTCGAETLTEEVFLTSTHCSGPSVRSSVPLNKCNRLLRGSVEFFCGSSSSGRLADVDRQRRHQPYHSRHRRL
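Detergent-free condition (0.00005% Triton X-100) in acetate buffer pH 5.5 with DTT. 1.5 nM enzyme and compound were pre-mixed 15 min, then 2 uM Z-FR-AMC substrate added; reaction progress from fluorescence change between first and third reads (60 s).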
SARS PLpro yeast = blocks SARS-CoV papain-like protease in a yeast assay. Potency, µM (top dose mostly 32.9 µM), inactives show top-dose activity, positive = growth rescue. S. cerevisiae expressing SARS-CoV PLpro, growth rescue; control for the full effect not named in the record. AID 485353. 330,000 tested, 0.19% active; active means well fitted rising curve with a large enough effect; inconclusive means small, poorly fitted or top-dose-only effect; inactive means no such curve, though single readings can be large or run the other way; note: 0% is about no effect; nearly all actives have a fitted effect of over 55% in size; growth read by luminescence after 48 h
Lassa entry inh = inhibitors of Lassa virus binding or cell entry; Lassa virus pseudotype entry inhibition, cell reporter; control for the full effect not named in the record; Potency, µM (doses to about 37.9 µM), for inactives: at the top dose activity change, negative = inhibition, usual class: inhibitors; 300,000 tested, 1.2% active; active means well fitted inhibition curve with a large enough effect; inconclusive means small, poorly fitted or top-dose-only effect, or effect the other way; inactive means flat fitted curve, though single readings scatter; tested in HEK293 cells; note: % is set by controls: 0 for no effect and ±100 for the full control effect; nearly all actives have a fitted effect of over 50% in size; luciferase read-out
Cruzain Triton = blocks cruzain activity in presence of Triton detergent; P25779; purified cruzain, Z-FR-AMC fluorescence, 0.01% Triton; Potency, µM, without a hit: max response, negative = inhibition, most hits filed as inhibitors; 200,000 tested, 0.43% active;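 note: plate controls were neutral wells for no effect and buffer without enzyme for full effect; nearly all actives have a fitted effect of over 40% in size; top concentration of the series not given in the record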
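Cysteine protease activity tested under reducing, mildly acidic conditions (100 mM sodium acetate pH 5.5, 5 mM DTT) plus 0.01% Triton X-100. Cruzain 1.5 nM; substrate Z-FR-AMC 2 uM; 15 min compound preincubation at room temperature.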
NS1 inh = inhibitors of influenza NS1 protein function. 270,000 tested, 0.4% active. AID 2326. Potency, µM (top dose mostly 46.1 µM), for the others: at the highest dose activity, positive = more growth. S. cerevisiae slowed by influenza A NS1, growth recovery by OD600; active means well fitted rising curve with a large enough effect; inconclusive means small, poorly fitted or top-dose-only effect; inactive means no such curve, though single readings can be large or run the other way; note: nearly all actives have a fitted effect of over 50% in size
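Compounds were scored for reversing the slow growth caused by influenza A NS1 in S. cerevisiae, measured by optical density at 600 nm. Assay medium contained 2% galactose at pH 6.0; NS1-free yeast of the same strain were the positive control.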
MARV entry inh = blocks Marburg virus binding to or entry into cells; Marburg virus pseudotyped entry inhibition, cell reporter; control for the full effect not named in the record; about a third of the inactives were read at about 46 µM; Potency, µM (series often up to 37.8 µM), without a hit: at the highest dose activity change, negative = inhibition, usual class: inhibitors; 300,000 tested, 1.8% active; active = well fitted inhibition curve with a large enough effect; inconclusive = small, poorly fitted or top-dose-only effect, or effect the other way; inactive = flat fitted curve, though single readings scatter; tested in HEK293 cells; about a fifth of its hits are not listed in these tables; note: % is set by controls: 0 for no effect and ±100 for the full control effect; luciferase read-out
StopGo reporter = FMDV 2A StopGo reporter, luciferase signal. human cells with a luciferase reporter of 2A StopGo recoding; control for the full effect not named in the record. Potency, µM (titrated, usually from 57.9 µM), inactives show at the top dose signal change, negative = less light. 410,000 tested, 1.2% active. AID 1159524; active = well fitted falling curve with a large enough effect; inconclusive = small, poorly fitted or top-dose-only effect; inactive = no such curve, though single readings can be large or run the other way; tested in HEK293T cells; note: % is set by controls: 0 for no effect and ±100 for the full control effect; nearly all actives have a fitted effect of over 45% in size; luciferase light after 4 h
RE007 growth inh = less growth of the S. pombe RE007 Vpr strain. S. pombe RE007 Vpr strain, BacTiter-Glo ATP luminescence, 24 h; control for the full effect not named in the record. Potency, µM (highest dose often 92.2 µM), without a hit: top-dose activity change, negative = less growth. 360,000 tested, 0.21% active; active = well fitted falling curve with a large enough effect; inconclusive = small, poorly fitted or top-dose-only effect; inactive = no such curve, though single readings can be large or run the other way;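 note: % is set by controls: 0 for no effect and ±100 for the full control effect; nearly all actives have a fitted effect of over 50% in size; the assay follows cell death caused by Vpr and the record does not say whether a fall means rescue or toxicity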
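Fission yeast strain RE007, carrying one chromosomally integrated HIV-1 vpr copy, was seeded at OD 0.01 in PMG+AL medium with 23 nL pinned compound. After 24 h at 30 °C and 99% humidity, viability was read by BacTiter-Glo luminescence.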
Numbers without * were called inactive; ? = inconclusive; nt = not tested or not shown; & = joins results of further samples; [ ] = dose if it differs, or a comment. Unless noted, calls come from the whole dose curve; as a rule, active = well fitted curve in the direction sought with a large enough effect; inconclusive = small, poorly fitted or top-dose-only effect, or another doubt; inactive = no such curve, though single readings can be large; an effect the other way counts as inactive or inconclusive. Potency is the fitted concentration of half-maximal effect.

Results follow in this order: Cruzain noTriton, SARS PLpro yeast, Lassa entry inh, Cruzain Triton, NS1 inh, MARV entry inh, StopGo reporter, RE007 growth inh
CC(CNC(=O)C1CCN(C(=O)N2CCOc3ccc(Cl)cc32)CC1)c1ccccc1 (stereo not given)
→ 15%, nt, -17%[46.1 µM], -5.7%, nt, nt, -27%, nt
O=C(COC(=O)Cc1cn2ccsc2n1)Nc1nc2ccccc2s1
→ -5%, -9%, 20%, -3.4%, -16%, 4%[46.1 µM], 0%, -8%
CCCc1cc(C(=O)NCCc2ccc(OC)c(OC)c2)no1
→ 1%, -12%, nt, -1.3%, -51%, nt, -28%, 11%
COc1ccc(C[C@H]2c3cc(O)c(OC)cc3CC[N+]2(C)[O-])cc1O (stereo not given in full)
→ nt, 4%, nt, nt, 4%, nt, -21%, 1%
Cc1cn(-c2cc(C(=O)Nc3ccc(C)c(NC(=O)C(=O)c4c[nH]c5ccccc45)c3)cc(C(F)(F)F)c2)cn1
→ nt, 1%, nt, nt, -4%, nt, 0%&-26%, -8%&-10%
CCCS(=O)(=O)c1ncc(Cl)c(C(=O)Nc2scc(-c3ccccc3)c2C(=O)OCC)n1
→ -27%, nt, ?, -4.9%, nt, ?, 25µM*, nt
CC(=O)N(C)c1ccc(N=Nc2c(C)[nH]n(C(N)=S)c2=O)cc1
→ nt, -3%, ?, nt, nt, -30%, 3%, -8%
COc1ccc(OCC(=O)Nc2ccc3c(c2)nc(CCNC(C)=O)n3C)cc1
→ nt, -2%, 21%, nt, 1%, 4%[46.1 µM], -3%, -5%
COc1ccc(-n2c(=S)[nH]c3cc(C(=O)O)ccc3c2=O)cc1
→ nt, 0%, -4%, nt, nt, 5%, 21%, -19%
CC1CN(CC(=O)NCc2ccccc2)CC(C)O1 (stereo not given)
→ nt, -1%, 5%[46.1 µM], nt, 11%, -3%[46.1 µM], 8%, 9%
CN(C)C(CNC(=O)CSc1nnc(-c2ccco2)o1)c1ccccc1 (stereo not given)
→ -4%, -2%, 0%, 0.4%, 3%, -5%&-5%, -27%, -6%
CCOc1ccc(C(=O)C(C)OC(=O)c2cnc(C)cn2)cc1 (stereo not given)
→ nt, -14%, 4%, nt, nt, 1%, -12%, 4%
O=C(c1cc2nc(-c3ccco3)cc(C(F)(F)F)n2n1)N1CCCc2ccccc21
→ 21%, 13%, 3%, -6.5%, -22%, 5%, ?, 2%
COc1ccccc1/C=C/c1nc(C#N)c(NCCc2ccccc2)o1
→ 16µM*, nt, 9%[46.1 µM], -7.5%, nt, 3%[46.1 µM], -6%, nt
Cc1ccc(NC(=O)C(Cc2c[nH]c3ccccc23)NC(=O)OCC(C)C)cc1 (stereo not given)
→ -5%, nt, ?, -11%, nt, ?, 13%, nt
Cc1ccc(S(=O)(=O)N2CCC(=O)CC2)cc1
→ nt, 0%, 2%[46.1 µM], nt, -1%, 4%[46.1 µM], -5%, 11%
CC(NC(=O)Nc1ccc2c(c1)OCO2)C1CCCO1 (stereo not given)
→ -1%, -7%, ?, 1.8%, -5%, 2%, 65%[activator], -6%
O=C(Nc1ccccc1C(=O)OCc1cc(=O)n2nc(C3CC3)sc2n1)c1cccc(Cl)c1
→ ?, nt, 11%[46.1 µM], 0.7%, nt, nt, -9%, nt
CS(=O)(=O)Nc1ccc(C2=NN(C(=O)c3cccc(F)c3)C(c3cccs3)C2)cc1 (stereo not given)
→ nt, -1%, nt, nt, ?, nt, -22%, 16%
C(=N\Nc1cc(N2CCCCC2)ncn1)/c1ccco1
→ nt, -7%, nt, nt, -18%, nt, 53%[activator], -14%
Cc1ncc(CSc2nc3ccccc3[nH]2)c(N)n1
→ -5%, 8%, -21%[14.3 µM], 5.8%, 3%, 19%, -4%, 47%
O=C(COc1ccc2oc3c(c2c1)CCCC3)Nc1ccc(Br)cc1
→ 0%, nt, -1%[46.1 µM], -2.6%, nt, 19%[46.1 µM], -15%, nt
Cc1ccc(NC(=O)C2CCCN(c3nc4ccccc4s3)C2)c(C)c1 (stereo not given)
→ 16%, nt, 12%[46.1 µM], -4.2%, nt, 1%[46.1 µM], -22%, nt
COc1ccccc1-c1cc(C(=O)Nc2cc(OC)c(OC)c(OC)c2)no1
→ ?, nt, ?, -8.5%, nt, ?, 0%, nt
COc1ccccc1CNc1nc(-c2ccco2)nn1C(=O)c1cc(OC)c(OC)c(OC)c1
→ ?, nt, 16%[46.1 µM], -3.2%, nt, 21%[46.1 µM], 11%, nt
O=C(NCCN1C(=O)S/C(=C/c2cccnc2)C1=O)c1ccc(S(=O)(=O)N2CCCC2)cc1
→ nt, nt, 9%[46.1 µM], nt, nt, 4%[46.1 µM], 3%, -4%
CCN1CCN(CCCCOc2ccccc2F)CC1
→ -6%, 15%, 7%, 6.7%, 2%, 27%, 4%, 15%
CCCCNC(=O)C1CCC(CNS(=O)(=O)c2c(C)cc(C)cc2C)CC1 (stereo not given)
→ nt, -1%, nt, nt, -7%, nt, -7%, 5%
CCCn1nc(NC(=O)c2cccs2)c2cc3cc(C)ccc3nc21
→ nt, -13%, ?, nt, -8%, 1%[46.1 µM], 5%, -17%
CCOC(=O)C1=C(N)OC2=C(C(=O)CCC2)C12C(=O)N(C)c1ccccc12 (stereo not given)
→ nt, -1%, -22%, nt, -2%, 8%, -1%, 24%

The last 3 compounds of the part above open the next one.
Results follow in this order: Cruzain noTriton, SARS PLpro yeast, Lassa entry inh, Cruzain Triton, NS1 inh, MARV entry inh, StopGo reporter, RE007 growth inh
CCCCNC(=O)C1CCC(CNS(=O)(=O)c2c(C)cc(C)cc2C)CC1 (stereo not given)
→ nt, -1%, nt, nt, -7%, nt, -7%, 5%
CCCn1nc(NC(=O)c2cccs2)c2cc3cc(C)ccc3nc21
→ nt, -13%, ?, nt, -8%, 1%[46.1 µM], 5%, -17%
CCOC(=O)C1=C(N)OC2=C(C(=O)CCC2)C12C(=O)N(C)c1ccccc12 (stereo not given)
→ nt, -1%, -22%, nt, -2%, 8%, -1%, 24%
Cc1ccc(-c2nnc(CSc3nnc(COc4ccccc4)n3-c3ccccc3)o2)cc1
→ 15%, -2%, ?, -6.2%, -53%, ?, -10%, -4%
COc1cc(-c2nccc3cc4c(cc23)OCO4)cc(OC)c1OC
→ nt, nt, ?, nt, nt, ?, -2%, -8%
NC1=NC[C@H](Cc2ccc(O)cc2)N1CCC12CC3CC(CC(C3)C1)C2
→ nt, -3%, nt, nt, 3%, nt, ?, 22%
CC(=O)N1NC(=Nc2ccccc2)SC1(C)C
→ nt, -2%, -30%, nt, -7%, -27%, ?, -10%
Cc1nc(NC(=O)COC(=O)c2cccs2)c(Cl)cc1Cl
→ nt, 3%, 0%, nt, nt, -9%, -2%, 2%
CN(CC(=O)N1CCN(c2ccccc2)CC1)S(=O)(=O)c1cccs1
→ nt, 2%, 4%, nt, nt, 11%, 25%, -16%
Cc1noc(NS(=O)(=O)c2ccc(NC(=O)C(C)C)cc2)c1C
→ nt, 3%, 2%, nt, -6%, 0%, -14%, 3%
Cc1ccc(C)c(S(=O)(=O)c2nnn3c2nc(NC2CCCC2)c2sccc23)c1
→ 10%, nt, ?, -4.3%, nt, nt, ?, nt
CCOC(=O)c1ccc(NC(=S)Nc2ccc(C)cc2)cc1
→ nt, -2%, ?, nt, -4%, ?, 27%, -7%
CC(C)c1ccc(NC(=O)CSc2nc(=O)n(CCN3CCOCC3)c3c2CCC3)cc1
→ nt, 1%, -5%, nt, nt, -11%, ?, 21%
CC(O)C(NS(=O)(=O)c1ccc(Cl)cc1)C(=O)OCc1cc([N+](=O)[O-])cc2c1OCOC2 (stereo not given)
→ nt, -2%, ?, nt, -1%, ?, -28%, 4%
COc1ccc(S(=O)(=O)N(C)CC(=O)NCCN2CCOCC2)cc1Cl
→ nt, 2%, ?, nt, 6%, -1%[46.1 µM], 4%, -10%
O=C(N/N=C1\CCSC1)c1cc(Cl)ccc1O
→ nt, 0%, 12%, nt, -5%, 16%[46.1 µM], 32%[activator], 4%
C=CCN1C(=O)/C(=C\c2cccc(OC(=O)c3ccco3)c2)SC1=S
→ nt, 4%, -8%[46.1 µM], nt, -5%, -11%[46.1 µM], 7%, -5%
CN(C)c1ccc(NC(=O)c2sc(SCC(=O)Nc3nccs3)nc2N)cc1
→ ?, -3%, 9%, -7.1%, 10%, -11%&-11%, -12%, 5%
O=C(O)c1c[nH]c2cc(C(F)(F)F)ccc2c1=O
→ -6%, 8%, 0%, -5.5%, -15%, 0%, -6%, 18%
COc1ccc2cc(CCNC(=O)c3ccco3)c(=O)[nH]c2c1
→ nt, 29%, 12%, nt, ?, -1%, -2%, 0%
COc1ccc(C(=O)NC2CCN(CC(=O)Nc3c(C)cccc3C)CC2)cc1OC
→ nt, 2%, 4%, nt, 2%, 1%, -8%, 4%
CC(=O)c1cccc(N2C(=NC(=O)C3CC3)SC3CS(=O)(=O)CC32)c1 (stereo not given)
→ nt, 0%, nt, nt, 5%, nt, -3%, 11%
O=c1c2ccccc2nc(SCc2cccc(F)c2)n1Cc1ccco1
→ -22%, -12%, -3%, -1.4%, -32%, -16%, ?, -8%
O=S(=O)(/N=C(/Nc1cc(N2CCOCC2)ncn1)c1ccccc1)c1ccccc1
→ ?, 1%, 3%, -2.7%, -5%, 24%, -10%, 20%
Cc1ccc(NCC2(N=Cc3ccccc3)OC(CO)C(O)C2O)cc1 (stereo not given)
→ nt, nt, -22%, nt, nt, -4%, 4%, 6%
COc1ccccc1N1CCN(C(=O)CCC(=O)Nc2nnc(CC(C)C)s2)CC1
→ nt, 22%, nt, nt, -8%, nt, ?, 3%
CCOC(=O)C1=C(C)Nc2ccccc2N=C1NC(=O)/C=C/c1ccc(OC)cc1OC
→ nt, -1%, ?, nt, 21%, 16%, -10%, 6%
ClCC(Br)CBr (stereo not given)
→ -2%, -2%, nt, 5.4%, nt, nt, -18%, -5%
CC(C)Sc1nc2ccccc2n1CC(=O)NCc1ccc2c(c1)OCO2
→ 4%, 5%, -33%[14.3 µM], -4.9%, 2%, -17%, -1%, 11%
